# Source: PubChem (National Center for Advancing Translational Sciences (NCATS))
# miR-21 reporter = miR-21 reporter, rising signal; HeLa miR-21 FLuc reporter, luciferase, 48 h; Potency, µM (highest dose often 38.3 µM), for the others: at the highest dose reporter change, positive = more light; AID 2288; 340,000 tested, under 10 active; active = well fitted rising curve with a large enough effect; inconclusive = small, poorly fitted or top-dose-only effect; inactive = no such curve, though single readings can be large or run the other way;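 further: % of control where 0% means no effect; miR-21 action dims this reporter so a rising signal means less miR-21 action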
#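 Compounds were titrated across several concentrations (up to approximately 40 uM) and incubated 48 hours with HeLa miR-21-FLuc reporter cells (miR-21 target sequence downstream of FLuc, endogenous miR-21). Readout was firefly luciferase luminescence after lytic detection reagent.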
# Rango release inh = inhibition of RanGTP-driven Rango-importin beta dissociation. O95149+P62826. Biochemical FRET Rango-importin beta, RanGTP-induced dissociation. Potency, µM (titrated, usually from 46.1 µM), for inactives: at the top dose activity change, negative = inhibition. 0.071% of 340,000 active. AID 540253; active means falling FRET ratio curve, often poorly fitted, with flat reads before Ran was added; inconclusive means other falling curves, or compound fluorescence or quenching; inactive means flat or rising ratio curve;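 further: potency means the concentration at half of the fitted maximal effect; % of control where 0% means no effect; nearly all actives have a fitted effect of over 45% in size; -100% = wells without RanGTP and RCC1; the record marks most hits as doubtful in a second field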
#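 Compounds preincubate 5 min with complex of recombinant Rango and importin beta in PBS with 1 mM DTT. Ran (0.6 uM) loaded with 2 mM GTP plus 0.2 uM RCC1 starts dissociation; FRET is recorded 45 min later.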
# Rango complex inh = prevents formation of the Rango-importin beta complex | AID 540263 | Rango CFP/YFP FRET sensor + importin beta, 45 min | 0.031% of 340,000 active | Q14974 | Potency, µM (doses to about 92.2 µM), inactives show at the highest dose inhibition of complex formation; active = rising FRET ratio curve, often small or poorly fitted; inconclusive = mostly compound fluorescence or quenching in the first reads; inactive = flat curves in all reads;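 further: potency means the concentration at half of the fitted maximal effect; 0% = DMSO wells and 100% = buffer wells lacking importin beta; nearly all actives have a fitted effect of over 15% in size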
# Target sequence (Q14974 whole entry, looked up): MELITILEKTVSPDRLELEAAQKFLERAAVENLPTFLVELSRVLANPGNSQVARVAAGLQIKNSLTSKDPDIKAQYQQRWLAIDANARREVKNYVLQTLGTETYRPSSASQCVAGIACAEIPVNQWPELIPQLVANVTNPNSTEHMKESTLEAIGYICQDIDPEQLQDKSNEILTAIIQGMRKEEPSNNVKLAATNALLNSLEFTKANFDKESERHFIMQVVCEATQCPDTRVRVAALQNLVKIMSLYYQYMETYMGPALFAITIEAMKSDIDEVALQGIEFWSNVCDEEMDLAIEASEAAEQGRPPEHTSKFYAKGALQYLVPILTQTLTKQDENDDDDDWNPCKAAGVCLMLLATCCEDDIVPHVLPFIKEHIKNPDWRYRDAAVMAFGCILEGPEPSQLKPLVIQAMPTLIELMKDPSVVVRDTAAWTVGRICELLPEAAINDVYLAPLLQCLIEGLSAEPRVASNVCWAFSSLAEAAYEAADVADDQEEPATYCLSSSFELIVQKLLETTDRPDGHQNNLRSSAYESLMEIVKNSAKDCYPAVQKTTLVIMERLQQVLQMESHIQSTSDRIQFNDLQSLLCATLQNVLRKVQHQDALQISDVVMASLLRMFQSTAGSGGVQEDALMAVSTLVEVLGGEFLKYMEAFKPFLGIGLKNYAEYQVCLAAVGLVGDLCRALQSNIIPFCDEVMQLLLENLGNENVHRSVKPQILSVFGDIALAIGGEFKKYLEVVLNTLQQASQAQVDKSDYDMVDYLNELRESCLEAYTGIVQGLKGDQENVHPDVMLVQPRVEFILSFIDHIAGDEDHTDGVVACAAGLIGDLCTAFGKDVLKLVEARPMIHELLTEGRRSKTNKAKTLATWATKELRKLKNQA
#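 FRET biosensor Rango (snurportin 1 IBB between N-terminal EYFP and C-terminal Cerulean), 50 nM in PBS/1 mM DTT/0.02% Tween-20/0.1% BSA, preincubated 5 min RT with compound; 0.125 microM importin beta added, 45 min RT, CFP/YFP FRET ratio read.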
# GLA inh pH 4.5 = alpha-galactosidase A (human) inhibition, pH 4.5. purified enzyme, 4-MU-alpha-Gal fluorescence, pH 4.5. 230,000 tested, under 10 active. activity change, negative = inhibition, % at 105 µM. AID 1467; inconclusive = small, poorly fitted or top-dose-only inhibition, or a rising curve; inactive = flat fitted curve, though single readings scatter; no compound was filed as active;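 further: 0% = full activity with enzyme and -100% = basal without enzyme; dose as in the result columns while the protocol names 77 µM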
# Active calls of the source: *; u = inconclusive; x = not tested or not shown; & = joins results of further samples. Only part of the results is shown; count on the stated rates, not on these rows.
Structure	miR-21 reporter	Rango release inh	Rango complex inh	GLA inh pH 4.5
O=C(NN1C(=O)c2ccccc2NC1c1ccco1)c1ccccc1 (configuration not stated)	-34%	0%	1.9%	-1
COC(=O)C1=C(C)NC(C)=C(C(=O)OCC2CCCO2)C1c1cccc(Br)c1 (configuration not stated)	11%	-9%	4.3%	x
COc1ccc(CCN(C)C(=O)c2ccc(S(=O)(=O)Nc3ccccc3F)cc2)cc1OC	x	6%	u	x
COc1cc(/C=N/N=C2\CC3CCC2(C)C3(C)C)ccc1O (configuration not stated)	-2%	1%	0.6%	2
CCOc1ccc(N2CC(C(=O)NCCC3=CCCCC3)CC2=O)cc1 (configuration not stated)	-2%	0%	0.4%	2
O=C(Cn1c(=O)n(Cc2ccco2)c(=O)c2ccccc21)Nc1cccc(Cl)c1	10%	-3%	0.6%	4
Cc1ccc(/C=C/C(=O)Nc2ccc(Oc3ccccc3)cc2)o1	1%	6%	-1.1%	1
Cc1nc(N2CCN(S(=O)(=O)c3ccccc3C#N)CC2)c2c(-c3ccccc3)csc2n1	x	-2%	-9.8%	x
O=C(N/N=C/c1cc(Br)ccc1O)C(=O)Nc1ccccc1OC(F)(F)C(F)F	17%	-9%	u	-4
Cc1cc(C)cc(N(CC(=O)NC(C)(C)C)C(=O)CNC(=O)c2cccs2)c1	0%	-10%	2.8%	10

# Some of these compounds in order of the miR-21 reporter value, low to high.
Structure	miR-21 reporter	Rango release inh	Rango complex inh	GLA inh pH 4.5
O=C(NN1C(=O)c2ccccc2NC1c1ccco1)c1ccccc1 (configuration not stated)	-34%	0%	1.9%	-1
Cc1ccc(/C=C/C(=O)Nc2ccc(Oc3ccccc3)cc2)o1	1%	6%	-1.1%	1
O=C(Cn1c(=O)n(Cc2ccco2)c(=O)c2ccccc21)Nc1cccc(Cl)c1	10%	-3%	0.6%	4

# Continuation.
Structure	miR-21 reporter	Rango release inh	Rango complex inh	GLA inh pH 4.5
CCOC1(OCC)C(c2ccc(N)cc2)C(C#N)(C#N)C1(OCC)OCC (configuration not stated)	-2%	-12%	u	-12
CSc1cccc(NC(=O)CN2C(=O)c3ccccc3S2(=O)=O)c1	10%	9%	-2.6%	-8
CC(C)(C)Nc1nc2cc([N+](=O)[O-])ccc2o1	-12%	-8%	4.1%	0
COc1cc(C(=O)NCCc2ccc(S(=O)(=O)N3CCCC3)cc2)cc(OC)c1OC	3%	3%	-0.8%	0
CCC(C(=O)NC1CC1)n1nc(C)c2c(C)n(-c3ccc(C)cc3)nc2c1=O (configuration not stated)	8%	-4%	0.0%	x
Cc1occc1-c1nnc(SCC(=O)N2CCN(c3ccc(F)cc3)CC2)n1C	19%	-5%	-2.3%	-13
Cc1ccc(/C=C/S(=O)(=O)NCc2ccc(F)cc2)cc1	-1%	12%	5.1%	5
CCCS(=O)(=O)C(=C(Nc1ccc(OC)cc1)Nc1ccc(OC)cc1)S(=O)(=O)CCC	-6%	1%	5.9%	-3
COc1ccc(N2C(=O)CC(C)(C)CC2=O)cc1OC	2%	14%	-0.5%	x
Cc1ccc(CN(C(=O)c2ccccc2[N+](=O)[O-])C2CCS(=O)(=O)C2)o1 (configuration not stated)	0%	36%	-1.5%	x

# The list goes on.
Structure	miR-21 reporter	Rango release inh	Rango complex inh	GLA inh pH 4.5
Cn1c(/C(C#N)=C(\O)c2cccc(F)c2)nc2ccccc21	-4%	10%	4.9%	x
CC(C)C(=O)Nc1cc(C(F)(F)F)ccc1-n1ccnc1	-1%	-24%	-2.7%	-5
O=C(CN1C(=O)NC2(CCOc3ccccc32)C1=O)NCCc1ccc(F)cc1 (configuration not stated)	x	-11%	-2.8%	x
CCOC(=O)C1=C(c2ccccc2)NC(SCC(=O)Nc2ccccc2C)=C(C#N)C1c1ccco1 (configuration not stated)	19%	7%	0.7%	-21
COc1ccc(C2(C#N)CCC(=O)N2c2ccccc2)cc1 (configuration not stated)	-4%	-7%	-1.4%	-4
C=CCNC(=O)C(=O)c1c(-c2ccccc2)[nH]c2ccccc12	-12%	-11%	-0.4%	-8
COc1ccc(C(=O)NC2CCN(C(=O)Nc3ccccc3Cl)CC2)cc1	3%	-6%	5.9%	0
O=C(CC1C(=O)NCCN1C(=O)c1ccc([N+](=O)[O-])cc1)Nc1ccc(F)cc1 (configuration not stated)	-1%	-10%	-3.4%	x
CCOC(=O)C1=C(C)c2ccccc2N(S(=O)(=O)C(F)(F)F)C1C(=O)OCC (configuration not stated)	x	1%	7.4%	-8
CCN1CCN(S(=O)(=O)c2ccc(F)c(C(=O)Nc3c(F)cc(F)cc3Br)c2)CC1	-1%	-1%	-3.5%	x

# (more compounds)
Structure	miR-21 reporter	Rango release inh	Rango complex inh	GLA inh pH 4.5
COc1ccccc1/C=C/C1C(C(=O)OCC(C)C)=C(C)N=C2SCCC(=O)N21 (configuration not stated)	-4%	u	-0.1%	-6
CC(=O)Nc1ccc(S(=O)(=O)N2CCC(C(=O)NCCC(=O)Nc3ccccc3)CC2)cc1	0%	2%	3.0%	x
CCCN1CCN(C(=O)c2oc3c(Cl)cccc3c2C)CC1	-18%	-8%	-0.5%	x
N#Cc1cccc(NC(=O)CN2CCCCCC2)c1	0%	12%	-5.8%	x
O=C(CSc1ccc(-c2ccccn2)nn1)Nc1ccc(F)cc1F	0%&-12%	0%	-2.6%	x
COC(=O)Cn1nnc2c(cnn2-c2ccccc2)c1=O	-16%	3%	9.4%	u
CCOC(=O)N1CCN(C(=O)CN2C(=O)NC(C)(c3ccc4ccccc4c3)C2=O)CC1 (configuration not stated)	x	-16%	u	x
COc1ccc(OC)c(NC(=O)CSc2nnc(CNc3ccc(C)cc3C)o2)c1	4%	-14%	-6.8%	-4
COC(=O)c1ccc(NC(=O)c2cc3c(CO)cnc(C)c3oc2=Nc2cccc(C(N)=O)c2)cc1	-1%	-1%	0.5%	x
COc1ccc(C2=NN(CC(=O)NCc3ccco3)C(=O)CC2)cc1	-4%	-25%	-3.0%	5

# The results go on:
Structure	miR-21 reporter	Rango release inh	Rango complex inh	GLA inh pH 4.5
CC(Sc1nnc(Nc2ccccc2)s1)C(=O)NC1CCCc2ccccc21 (configuration not stated)	1%	9%	-3.6%	9
Cc1ccc(-c2c(C(=O)NCc3ccc(F)cc3)oc(=O)c3ccccc23)cc1	-2%&0%	1%	6.6%	-7
CN(C)c1ccc(NC(=O)COC(=O)CCC(=O)c2ccc(F)cc2)cc1	-1%	24%	0.2%	0
Cc1ccc(C)c(NC(=O)CSc2nnc(Cc3cccn3C)n2-c2ccc(F)cc2)c1	-7%	1%	2.4%	3
CC(C)c1ccc(O)c(NC(=O)c2cccnc2)c1	-3%	0%	1.9%	-3
COc1ccccc1C1NC(=O)NC(C)=C1C(=O)OC1CCC(C)CC1 (configuration not stated)	-3%	8%	0.7%	x
Cc1ccccc1Cn1c2ccccc2c2cnn(CC(=O)NCCCN3CCOCC3)c(=O)c21	8%	5%	0.0%	x
CCCCN(C)C(=O)C1CCN(CCCc2ccccc2)CC1	0%	u	1.1%	-1
Cc1ccc(-c2nc3ccccc3n3nnnc23)cc1	-18%	-12%	-4.7%	7
COc1cc(OC)nc(-n2ncc(Br)c(Br)c2=O)n1	u	-8%	2.9%	5

# The list continues:
Structure	miR-21 reporter	Rango release inh	Rango complex inh	GLA inh pH 4.5
CCCN(CCC)S(=O)(=O)c1ccc(C(=O)NNc2nc(-c3ccccc3)c3cc(Br)ccc3n2)cc1	-4%	15%	-0.8%	-6
O=C1C(Cc2ccccc2)NC(=S)N1Cc1ccccc1 (configuration not stated)	-2%	-13%	6.6%	10
N/C(=N\OC(=O)CCC1CCCC1)c1ccccc1	-19%	7%	0.8%	-6
O=C(Nc1ccc(F)cc1)OCCN1CCN(Cc2ccccc2)CCC1=O	-23%	-2%	-5.4%	-9&3
COC(=O)c1ccc(Nc2cc(C)nc3ccc(C)cc23)cc1	26%	2%	u	-10
COc1ccccc1NC(C)C(=O)N/N=C/c1ccccc1OCc1cccc(Br)c1 (configuration not stated)	-10%	6%	1.2%	-12
COc1ccccc1NC(=O)COC(=O)c1ccc2ccccc2n1	x	1%	14%	x
COc1ccccc1CCNC(C)CCc1ccc(O)cc1 (configuration not stated)	-8%	-9%	-0.6%	x
COc1ccc(-c2c(C#N)c(N)nc3c2CCCCCC3)cc1OC	1%	-4%	-0.6%	1
Cc1nc2c(ccc3nc(NC(=O)Cc4cccc5ccccc45)sc32)s1	-8%	28%	-7.3%	-5

# The last 3 compounds of the section before open the next one:
Structure	miR-21 reporter	Rango release inh	Rango complex inh	GLA inh pH 4.5
COc1ccccc1CCNC(C)CCc1ccc(O)cc1 (configuration not stated)	-8%	-9%	-0.6%	x
COc1ccc(-c2c(C#N)c(N)nc3c2CCCCCC3)cc1OC	1%	-4%	-0.6%	1
Cc1nc2c(ccc3nc(NC(=O)Cc4cccc5ccccc45)sc32)s1	-8%	28%	-7.3%	-5
O=C(Nc1nc2ccccc2[nH]1)c1ccccc1O	-46%	-19%	-5.6%	x
CC(=O)c1c(C)[nH]c(C(=O)CSc2nnc(C)s2)c1C	-38%	2%	-0.7%	3
CCOC(=O)N1CCN(C(=O)CCCN2C(=O)CSc3nc(C)cc(C)c32)CC1	1%	-7%	u	5
Cc1nc2ccc(N=NN(C)C)cc2[nH]1	3%	u	-2.1%	-2
CCOc1ccc(C2/C(=C(/O)c3ccc(S(=O)(=O)N4CCCCC4)cc3)C(=O)C(=O)N2CCCOC)cc1OC (configuration not stated)	1%	4%	0.9%	x
COc1ccc(N(C)C(=O)c2oc(=O)c3ccccc3c2-c2ccccc2)c(OC)c1	0%	-1%	-1.2%	0
CC(C)C(NC(=O)CSCc1ccc([N+](=O)[O-])cc1)C(C)C	20%	-13%	-2.2%	-2
CCc1cccc(NC(=O)CCCCCC2NC(=O)NC2C)c1 (configuration not stated)	-2%	16%	2.3%	7

# Taken from above:
# Under GLA inh pH 4.5, Cc1ccc(-c2c(C(=O)NCc3ccc(F)cc3)oc(=O)c3ccccc23)cc1 has the entry -7
# Under Rango complex inh, CC(C)(C)Nc1nc2cc([N+](=O)[O-])ccc2o1 has the entry 4.1%
